Bioassay records: PubChem BioAssay, Center for Chemical Genomics, University of Michigan
CDC25B-CDK2 inh: primary biochemical HTRF screen for blockers of M-phase inducer phosphatase 2 binding to CDK2/cyclin A; P30305+P24941; HTRF CDC25B-CDK2/CyclinA binding, anti-His/anti-Flag; stronger effect = higher value; z-score (test concentration not listed); hit rate 0.72% among 94,000; AID 1259370, 2018;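 note: score is relative to mean and SD of negative controls; strong numbers were not always called active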
TAR Tat displ: TAR RNA-Tat peptide displacers, HIV-1, primary screen, biochemical, FRET, FAM/TAMRA-labeled Tat; HIV-1 TAR RNA, Tat peptide displacement FRET; stronger effect = higher value; z-score (test concentration not listed); hit rate 0.6% among 100,000; AID 1259389, 2018;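 note: score is relative to mean and SD of negative controls; some compounds called inactive have numbers as strong as hits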
The depositor's hits bear a star; · = no result given; & = joins results of further samples.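 Rule for the calls: active = z-score from 3 up in half or more of its runs; inactive = the rest.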

Sample of the layout, two compounds:
SMILES	CDC25B-CDK2 inh	TAR Tat displ
Cc1c(C(=O)N2CCCCC2)c(S(=O)(=O)N2CCN(c3ncccn3)CC2)c(C)n1C	·	-0.56
O=C(C1CCN(c2nccc(C(F)(F)F)n2)CC1)N1C=CC(C(F)(F)F)=NCC1	-1.3	·

Main list (from the top)
SMILES	CDC25B-CDK2 inh	TAR Tat displ
Cc1c(C(=O)N2CCCCC2)c(S(=O)(=O)N2CCN(c3ncccn3)CC2)c(C)n1C	·	-0.56
O=C(C1CCN(c2nccc(C(F)(F)F)n2)CC1)N1C=CC(C(F)(F)F)=NCC1	-1.3	·
COc1ccccc1N1CCN(C(=O)CSc2nc3ccccc3c(=O)[nH]2)CC1	·	1.8
O=C1[C@@H]2CSC(c3ccc(Cl)cc3)N2C(=O)N1c1ccc(F)cc1 (stereo partly drawn)	-1.3	-0.02
O=C1Cc2cc(S(=O)(=O)NCC3CCCO3)cc3c2N1CCC3 (stereo not drawn)	·	1.6
COc1ccc(Nc2cc(C)nc(SC)n2)cc1	-0.42	0.6
O=C(CN1N=NC2C(=O)N(c3ccc(Cl)cc3)C(=O)C21)Nc1ccccc1 (stereo not drawn)	-2.4	-0.03
O=S1(=O)C[C@H](NCc2ccc3c(c2)OCO3)[C@@H](S(=O)(=O)c2ccc(Cl)cc2)C1	0.04	0.07
O=C(CSc1nnc2scc(-c3ccccc3)n12)Nc1nc(-c2ccccc2)ns1	-0.29	·
Cc1nnc2c(Nc3ccc4c(c3)OCO4)nc3ccccc3n12	0.25	1.3
CN(Cc1ccccc1)C(=O)c1nn(C)c2c1COc1ccccc1-2	0.05	1.2
Cc1ccc2occ(CC(=O)N(Cc3ccco3)C3CCS(=O)(=O)C3)c2c1 (stereo not drawn)	-0.41	1.1
COc1ccc(NC(=O)CSc2nccn2C2CCCCC2)c(OC)c1	·	-0.11
COc1ccc(N(Cc2nc3nc(C)cc(=O)n3[nH]2)S(C)(=O)=O)cc1	0.05	0.08
Cc1cc(C)cc(N2C(=O)N(Cc3ccc(Cl)cc3)C3CS(=O)(=O)CC32)c1 (stereo not drawn)	1	1.3

Looked up one by one from above:
SMILES	CDC25B-CDK2 inh	TAR Tat displ
CN(Cc1ccccc1)C(=O)c1nn(C)c2c1COc1ccccc1-2	0.05	1.2
O=C1Cc2cc(S(=O)(=O)NCC3CCCO3)cc3c2N1CCC3 (stereo not drawn)	·	1.6
Cc1ccc2occ(CC(=O)N(Cc3ccco3)C3CCS(=O)(=O)C3)c2c1 (stereo not drawn)	-0.41	1.1

Continued:
SMILES	CDC25B-CDK2 inh	TAR Tat displ
Cc1noc(C(=O)Nc2ccc(F)c(Cl)c2)c1Cl	-0.48	-0.48
Cc1cc(C)n(-c2nc3c(c(=O)n2CC(=O)NC2CCCCC2)CCC3)n1	·	1.1
COc1ccc(-c2noc(-c3ccc(C)cc3Cl)n2)cc1	-2.7	·
CC(=O)NC1=NN(C(C)=O)C(c2ccc(N(C)C)cc2)S1 (stereo not drawn)	-0.01	0.86
COCCCNC(=O)C1CCN(C(=O)c2sccc2-n2cccc2)CC1	0.02	0.99
CSc1nc(C)cc(NCc2cccnc2)n1	-1.3	1.5
Cc1cc2c3c([nH]c2cc1S(=O)(=O)N(CCN1CCOCC1)Cc1ccco1)CC(C)(C)CC3=O	·	-8.7
CCc1ccc(-n2nnc(-c3nc(-c4ccc(OC)c(OC)c4)no3)c2C)cc1	·	-1.1
COc1cc(-c2nc3cnccn3c2Nc2ccc3c(c2)OCO3)ccc1O	-3.8	-1.2
Cc1noc2ncnc(NCCN(C)C3CCCCC3)c12	·	1.4
CCCCOc1cccc(C2c3c(oc4ccccc4c3=O)C(=O)N2c2ccccn2)c1 (stereo not drawn)	-0.14	-0.67
Cc1cc(Br)ccc1OCCCN1CCN(C)CC1	-1.1	0.58
CN1CCN(CCCNC(=O)C2CCCN(c3nnc(N4CCCC4=O)s3)C2)CC1 (stereo not drawn)	-3.3	2.6
CCCc1cc(=O)n2[nH]c(N)nc2n1	0.24	0.75
CCN(CC)C(=O)Cn1cc(SCC(=O)Nc2ccc(Br)cc2)c2ccccc21	·	0.07

Quoted from the listing.
`CC(=O)NC1=NN(C(C)=O)C(c2ccc(N(C)C)cc2)S1` (stereo not drawn) in CDC25B-CDK2 inh reads -0.01
`CCc1ccc(-n2nnc(-c3nc(-c4ccc(OC)c(OC)c4)no3)c2C)cc1` in TAR Tat displ reads -1.1
`COc1ccc(NC(=O)CSc2nccn2C2CCCCC2)c(OC)c1` in TAR Tat displ reads -0.11

Returning to the listing, repeating the three entries before the break.
SMILES	CDC25B-CDK2 inh	TAR Tat displ
CN1CCN(CCCNC(=O)C2CCCN(c3nnc(N4CCCC4=O)s3)C2)CC1 (stereo not drawn)	-3.3	2.6
CCCc1cc(=O)n2[nH]c(N)nc2n1	0.24	0.75
CCN(CC)C(=O)Cn1cc(SCC(=O)Nc2ccc(Br)cc2)c2ccccc21	·	0.07
CCCS(=O)(=O)c1ncc(Cl)c(C(=O)Nc2sc3c(c2C(=O)NCC)CCCC3)n1	-2.6	0.83
COc1ccc(OC)c2sc(N(CCCN(C)C)C(=O)c3nc4ccccc4s3)nc12	·	6.2
CCN(CC)CC(O)Cn1ccc2ccccc21 (stereo not drawn)	-1.4	2.3
Cn1c2c(c(=O)n(C)c1=O)C(c1cc(F)ccc1F)CC(=O)N2 (stereo not drawn)	-1.7	1.6
O=C1N(Cc2c(F)cccc2Cl)c2ccccc2S(=O)(=O)N1c1ccc(F)cc1	·	0.66
CC(C)CCn1c(=S)[nH]c2ncccc2c1=O	-3	·
O=C(Nc1nnc(S(=O)(=O)Nc2ccccc2)s1)c1ccco1	0.55	0.22
COc1ccc(-n2c(C)cc(CNC(=O)Nc3ccc4c(c3)OCCO4)c2C)cc1	·	-5.2
Cc1ccc2c(=O)cc(CSCc3ccccc3)[nH]c2c1C	·	-1.4
Cc1nc2c(s1)CCc1oc(C(=O)NCC3CCCCC3)c(C)c1-2	·	1.4
O=C(C1CC2CCCN2C12C(=O)Nc1ccccc12)N1CCCCC1 (stereo not drawn)	-1.4	0.97
Cn1c(=O)c2c(SCC(=O)NCC3CCCO3)nc(C3CCCCC3)nc2n(C)c1=O (stereo not drawn)	·	0.37
O=C(Nc1ccccc1)N1CCC(N2CCN(Cc3ccccn3)C(=O)C2=O)CC1	·	1.3
CN1CCN(C(=O)c2cc3n(n2)CC(C)(C(=O)NC2CCCC2)N(C)C3=O)CC1 (stereo not drawn)	·	2.6
CSc1ccc(CN2Cc3ccncc3C2=O)cc1	·	1.8
O=C(C1CCN(c2nnc(N3CCCCC3=O)s2)CC1)N1CCN(c2ncccn2)CC1	·	1.1
CCC(=O)n1c(=O)n(C(=O)CC)c2ccccc21	-2	0.77
O=C(CSc1nnc(-c2ccncc2)o1)NCC1CCCO1 (stereo not drawn)	-1.4	2
CCCCCCSC1=C(C#N)C(c2ccccc2C)C(C(=O)OC)C(=O)N1 (stereo not drawn)	-1.3	0.65
O=c1[nH]c(CNc2ccc(Cl)cc2)nc2sc3c(c12)CCCC3	-1.5	-0.83
O=C(c1cnn2ccccc12)N1CCC(C(O)(c2ccccc2)c2ccccc2)CC1	0.4	2.2
CCC(C)N1CCN(C(=O)CN(C)S(=O)(=O)c2ccc3c(c2)c(=O)n(C)c(=O)n3C)CC1 (stereo not drawn)	-0.96	-0.44
Cc1cccc(Cn2c(=O)c3c(nc4n3CCN4Cc3ccco3)n(C)c2=O)c1	·	2.8
CCc1ccc(-c2cc(C)no2)cc1S(=O)(=O)N(Cc1ccco1)C(C)c1ccccc1 (stereo not drawn)	·	-0.5
Cc1ccc(C2=CC(c3ccc(N(C)C)cc3)n3nnnc3N2)cc1 (stereo not drawn)	1.3	-4.4
CCc1cc2c(cc3c(=O)n(CC(=O)N4CCN(C(=O)c5ccco5)CC4)nc(CC)n32)s1	0.21	-0.06
CCC(C(=O)NCCCOC(C)C)n1nc(C)n2c(cc3sccc32)c1=O (stereo not drawn)	-0.01	-0.06
COC(=O)c1cc(S(=O)(=O)N2CCC(CN3CCc4ccccc4C3)CC2)cn1C	·	0.89
O=C(COc1nsnc1N1CCOCC1)Nc1ccc(F)cc1	2.3	·
COCCOC(=O)C1=C(C)NC2=C(C(=O)CCC2)C1c1ccc(F)c(F)c1 (stereo not drawn)	-0.87	-0.58
CN(C)C(=O)c1cnn(-c2ccccc2)c1NC(=O)c1ccc(Br)cc1	-0.92	·
CCOC(=O)c1ccc(N2C(=O)c3n[nH]c(-c4cccs4)c3C2c2ccc(O)c(OCC)c2)cc1 (stereo not drawn)	·	2.8
O=C(Cn1nnc(-c2cccc(C(F)(F)F)c2)n1)NNS(=O)(=O)c1cccc(C(F)(F)F)c1	-0.25	·
C=CCn1c(Sc2ncc(C#N)c(N)n2)nnc1-c1cccs1	-2.6	·
COC(=O)c1c(N)n(-c2cccc(C(F)(F)F)c2)c2nc3ccccc3nc12	0.15	·
N=C1C(c2nc3ccccc3[nH]2)=C(O)CN1c1ccc(Cl)cc1F	1.9	1.7
CCCCCCSC1=C(C#N)C2(CCC(C)CC2)C(C#N)C(=O)N1 (stereo not drawn)	-0.75	·
C=CCc1ccc(O)c(-c2cc(CC=C)ccc2O)c1	·	0.7
CCOC(=O)C(C)Oc1ccc2ccc(=O)oc2c1 (stereo not drawn)	-1.6	·
COc1ccc(C)cc1NS(=O)(=O)C1CCS(=O)(=O)C1 (stereo not drawn)	-1.9	0.41
O=C(C1CCN(c2ncnc3c2nc2n3CCCCC2)CC1)N1CCC(Cc2ccccc2)CC1	·	0.21
O=C(O)C1CCCN(c2nccc3nc(NCc4ccc(Cl)cc4)ncc23)C1 (stereo not drawn)	-0.88	0.97
COc1ccc(-c2noc(Nc3cccc(SC)c3)n2)cc1OC	·	1.6
COC(=O)CSC1=C(C#N)C(c2ccccc2Cl)C(C(=O)OC)C(=O)N1 (stereo not drawn)	-1	-2.1
Clc1ccccc1-c1nn2c(C3COc4ccccc4O3)nnc2s1 (stereo not drawn)	-1.6	0.14
Cc1cc2c(cc1S(=O)(=O)CCC(=O)NC1CCCCC1C)OCC(=O)N2 (stereo not drawn)	·	0.64
COc1ccc(S(=O)(=O)[C@H]2CS(=O)(=O)C[C@@H]2NCc2ccccc2OC)cc1	-0.88	0.37
COc1ccc(N2CCN(c3nc(Nc4ccc(NC(C)=O)cc4)nc(N4CCCC4)n3)CC2)cc1	-1.1	·
CCS(=O)(=O)c1ncc(Cl)c(C(=O)Nc2nnc(C(C)C)s2)n1	0.5	2.5
O=C(Nc1nnc(CCS(=O)(=O)c2ccc(Br)cc2)s1)c1cccs1	-1.6	·
O=C(O)c1nccnc1C(=O)Nc1ccc2c(c1)OCO2	0.12	·
CC(=O)N(c1c(C)n(C)n(-c2ccccc2)c1=O)C1(C(=O)NC2CCCCC2)CCCCC1	-0.12	·
Cc1ccc2c(=O)cc(-c3ccccc3C(=O)O)oc2c1	1.7	-0.39
O=C(NNS(=O)(=O)c1ccccc1Cl)c1nn(-c2ccc(F)cc2)ccc1=O	1.9	·
Cc1ccc(-n2ncc3c(NCCC4=CCCCC4)ncnc32)cc1C	·	0.78
CN(C)CCNC(=O)C1CCN(c2nnc(N3CCCCC3=O)s2)CC1	·	1.4
O=C(Nc1cccc(Br)c1)N1CCSc2ccccc21	·	0.91
CCC(CN1CCOCC1)NC(=O)Nc1cn(CC(C)C)c(=O)c2ccccc12 (stereo not drawn)	·	0.97
CCOC(=O)C(C(=O)C(F)(F)F)C(NC(N)=S)c1ccco1 (stereo not drawn)	-0.19	·
Cc1ccc(C)c(Cn2cnc3c(nnn3Cc3ccccc3F)c2=O)c1	-0.29	2.5

Other results follow.
SMILES	CDC25B-CDK2 inh	TAR Tat displ
Nc1nc(Cl)nc2ncn(Cc3ccccc3)c12	-1.7	·
Cc1nc(-c2ccc(C)c(S(=O)(=O)Nc3ccc(F)cc3Cl)c2)cs1	·	1.1
O=C(C1CCN(S(=O)(=O)c2ccc3c(c2)CCCN3C(=O)C2CCC2)CC1)N1CCCCC1	·	1
O=c1c(NCc2ccccc2Cl)nccn1-c1ccc2c(c1)OCO2	·	0.28
O=C(C1CCN(S(=O)(=O)c2cccc3cccnc23)CC1)N1CCc2ccccc21	-0.8	·
CCCN1CCN(C(=O)c2c(C)oc3ncnc(N4CCOCC4)c23)CC1	·	1.4
CNc1ncnc2c1c(-c1ccccc1)cn2-c1cccc(Cl)c1	-2	1.1
O=C(NC1CCCC1)c1ccc(Cn2c(=O)[nH]c3ccsc3c2=O)cc1	-0.63	0.64
O=C(Cc1c[nH]c2ccccc12)N(Cc1cccs1)C1(C(=O)NC2CCCCC2)CCCCC1	-0.48	·
CCOC(=O)C1=C(C)Nc2nc(SCC)nn2C1c1ccccc1OCC (stereo not drawn)	-0.5	-0.74
COc1ccc(C2=C(C)C(N3CC(C)CC(C)C3)=NS2(=O)=O)cc1 (stereo not drawn)	-2.7	1.4
CN1CCCc2cc(C(CNC(=O)C(=O)NCc3ccc4c(c3)OCO4)N3CCCC3)ccc21 (stereo not drawn)	·	0.18
Cn1c(-c2ccc3c(c2)OCO3)cn2cc(-c3ccc(Br)cc3)nc12	-1.7	-0.7
Cc1cc(Cc2cc(C)cc(C(C)(C)C)c2O)c(O)c(C(C)(C)C)c1	·	2.5&1.5
O=C(CSc1nc2ccccc2c(=O)[nH]1)c1cc2ccccc2o1	-1.3	·
CNC(=O)c1ccc(N(Cc2ccccc2Cl)C2=NC3CS(=O)(=O)CC3S2)cc1 (stereo not drawn)	-0.91	1.4
CCOC(=O)CNc1nn2c(=O)c3ccc(C(=O)OC)cc3nc2s1	·	-0.2
